Screening results (PubChem BioAssay)
TRPML1 ag – human mucolipin-1 channel agonism. AID 624414. activation, % (concentration not given with the values). TRPML1-expressing cells, Ca2+ dye fluorescence, FDSS; host cell line not named in the record; reference of the full effect not given here. 0.12% of 410,000 active. Q9GZU1; in the data active = activation above about 50%; inconclusive = about 30% to 50%; inactive = below about 30%; also: 0% is about no effect; the text of the record puts the active cut at 80%
Target sequence (Q9GZU1 whole entry, looked up): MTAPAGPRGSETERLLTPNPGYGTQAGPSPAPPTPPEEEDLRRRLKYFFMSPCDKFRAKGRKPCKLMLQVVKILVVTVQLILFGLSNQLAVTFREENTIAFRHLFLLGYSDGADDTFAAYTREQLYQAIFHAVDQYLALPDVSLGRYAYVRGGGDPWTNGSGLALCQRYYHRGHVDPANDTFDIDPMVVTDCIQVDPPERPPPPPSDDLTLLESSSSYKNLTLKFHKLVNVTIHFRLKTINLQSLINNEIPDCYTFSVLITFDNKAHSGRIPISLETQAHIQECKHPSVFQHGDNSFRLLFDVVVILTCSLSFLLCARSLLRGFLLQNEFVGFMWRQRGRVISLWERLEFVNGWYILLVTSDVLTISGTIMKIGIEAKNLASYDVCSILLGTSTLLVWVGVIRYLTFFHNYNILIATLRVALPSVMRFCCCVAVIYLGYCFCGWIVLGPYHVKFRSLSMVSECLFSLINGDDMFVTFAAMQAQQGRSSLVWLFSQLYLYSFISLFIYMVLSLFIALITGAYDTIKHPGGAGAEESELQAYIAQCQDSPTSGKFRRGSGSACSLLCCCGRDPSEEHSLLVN
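Kinetic FDSS Ca2+ read in Tet-induced TRPML1-DL cells (ABD Ca8 dye plus quencher, 45-90 min RT loading): baseline, then compound, then 110 s agonist window; EC80 agonist 54-4 at 4uM final added afterwards for a 110 s antagonist window.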
D2 PAM – potentiates the human D2 dopamine receptor allosterically; potentiation, % (test concentration not listed); P14416; DiscoveRx D2 beta-arrestin cells, luminescence, 90 min; 100% = 57 uM dopamine signal; AID 624464; 0.23% of 360,000 active; active = potentiation of 50% or more; inconclusive = 30% to 50%; inactive = 30% or less;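 also: compound concentration not given in the record; tested on top of an EC20 dose of dopamine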
Target sequence (P14416 whole entry, looked up): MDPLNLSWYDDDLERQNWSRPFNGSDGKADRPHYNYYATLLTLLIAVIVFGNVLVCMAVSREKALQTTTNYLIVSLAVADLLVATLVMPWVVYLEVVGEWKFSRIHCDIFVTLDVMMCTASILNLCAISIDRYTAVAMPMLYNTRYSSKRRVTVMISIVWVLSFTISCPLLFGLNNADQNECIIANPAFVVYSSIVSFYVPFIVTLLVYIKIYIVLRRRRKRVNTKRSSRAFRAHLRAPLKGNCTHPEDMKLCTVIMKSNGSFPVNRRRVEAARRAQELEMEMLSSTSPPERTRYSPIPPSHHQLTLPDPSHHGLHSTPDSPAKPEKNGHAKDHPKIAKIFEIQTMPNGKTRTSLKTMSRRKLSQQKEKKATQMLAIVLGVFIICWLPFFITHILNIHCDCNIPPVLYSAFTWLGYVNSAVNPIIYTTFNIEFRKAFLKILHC
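PathHunter beta-arrestin assay in DiscoveRx D2 cells. Compounds were added with an EC20 of dopamine (50 nM final) for 90 min at 37 deg C. Luminescence was read 1 h after detection reagent, with 57 uM dopamine as the EC100 control.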
CtBP-E1A blk – CtBP/E1A binding inhibition; AlphaScreen GST-E1A/His-CtBP binding, 1536-well; active compounds read low; control for the full effect not named in the record; activity change, % (no concentration beside the values); 0.49% of 340,000 active; in the data active means activity change below about -65%; inconclusive means about -30% to -65%; inactive means above about -30%; also: % is scaled to controls: 0 for no effect and ±100 for the full control effect
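AlphaScreen with 125 nM GST-E1A and 125 nM His-CtBP (5X stocks) in Tris pH 8.0, 300 mM NaCl, BSA, Tween 20, TCEP. Compounds preincubated 2 h at 37 deg C, then glutathione donor/nickel acceptor beads added for 1 h at 37 deg C in dark.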
TRPV1 PAM – human TRPV1 potentiation; Q8NER1; TRPV1-expressing cells, Fluo-8 calcium influx, capsaicin EC20 potentiation; host cell line not named in the record; control for the full effect not named in the record; potentiation, % at 8.33 µM; 0.02% of 320,000 active; AID 540277; active means potentiation above 80%; inconclusive means 30% to 80%; inactive means below 30%; also: 0% is about no effect
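TRPV1-expressing cells were cultured overnight at 35.5C and loaded with Fluo-8 calcium dye for 40 to 90 min at room temperature. After a 10 s baseline, compound was added and calcium influx was read kinetically for 3 min (ex 480/em 520 nm).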
TRPML1 inh – inhibitors of human TRPML1 channel; Q9GZU1; TRPML1-inducible cells, Ca2+ dye fluorescence, FDSS; active compounds read low; inhibition of EC80 agonist-evoked calcium signal; activity change, negative = inhibition, % (concentration not given with the values); 0.02% of 390,000 active; AID 624415; in the data active means activity change below about -50%; inconclusive means about -30% to -50%; inactive means above about -30%;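 also: stimulus is agonist 54-4 at its EC80 concentration; % is scaled to controls: 0 for no effect and ±100 for the full control effect; the text of the record puts the active cut at -80%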
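Tet-induced TRPML1-DL cells loaded with Ca8 no-wash calcium dye were read kinetically on FDSS. Compound addition was followed by EC80 agonist 54-4 (4 uM final); inhibition was read over 110 s.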
Six1-Eya2 blk – blocks human Six1 binding to Eya2; activity change, % (test concentration not listed); AlphaScreen GST-Six1/His-Eya2 binding, biochemical; active compounds read low; control for the full effect not named in the record; Q15475+O00167; AID 651725; 0.56% of 360,000 active; in the data active = activity change below about -65%; inconclusive = about -30% to -65%; inactive = above about -30%; also: % is scaled to controls: 0 for no effect and ±100 for the full control effect
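Compounds are tested against tagged Six1 and Eya2 proteins bridged by glutathione donor and nickel acceptor beads; after a one-hour incubation at 37 °C without light, AlphaScreen emission is recorded.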
* hit, by the source's call; ? = inconclusive; · = not tested or not shown; & = joins results of further samples.

SMILES	TRPML1 ag	D2 PAM	CtBP-E1A blk	TRPV1 PAM	TRPML1 inh	Six1-Eya2 blk
CCOc1ccc(S(=O)(=O)N2CCN(c3ccccc3)CC2)c2cccnc12	2.0	1	-2	-2	11	-20
CCOc1ccccc1C(=O)Nc1cc(Cl)ccc1O	-0.2	-10	3	1	-11	-2
CCOC(=O)CON1C(=O)c2ccccc2C1=O	2.5	-26	8	8	19	0
CCOC(=O)C(NC(C)=O)(Nc1ccc(S(N)(=O)=O)cc1)C(F)(F)F (stereo unspecified)	0.9	2	-6	15	-2	8
Cc1ccc(-c2c(C(=O)N/N=C/c3ccc(C)o3)nnn2-c2nonc2N)cc1	0.5	-6	·	12	7	-7
O=C(NCc1cccnc1)c1ccccc1NS(=O)(=O)c1ccc(Br)cc1	-0.1	0	·	·	6	1
Cc1ccc(C(C)NC(=O)c2ccc3c(c2)OCCO3)cc1C (stereo unspecified)	0.9	-3	10	-8	-10	7
Cc1cc(NC(=O)COc2ccccc2)ccc1Cl	·	-37	·	-20	·	12
Cn1c(=O)c(C(=O)NCc2ccc(F)cc2)c(O)c2ccccc21	1.3	-1	2	?	-15	8
CC(C)Nc1ncnc2c1ncn2[C@H]1CN(Cc2ccccc2)C[C@@H](CO)O1	-1.1	-3	1	·	·	8

Compounds above that have four or more nitrogen atoms, in the order listed:
SMILES	TRPML1 ag	D2 PAM	CtBP-E1A blk	TRPV1 PAM	TRPML1 inh	Six1-Eya2 blk
Cc1ccc(-c2c(C(=O)N/N=C/c3ccc(C)o3)nnn2-c2nonc2N)cc1	0.5	-6	·	12	7	-7
CC(C)Nc1ncnc2c1ncn2[C@H]1CN(Cc2ccccc2)C[C@@H](CO)O1	-1.1	-3	1	·	·	8

Returning to the listing, repeating the 6 entries before the break.
SMILES	TRPML1 ag	D2 PAM	CtBP-E1A blk	TRPV1 PAM	TRPML1 inh	Six1-Eya2 blk
Cc1ccc(-c2c(C(=O)N/N=C/c3ccc(C)o3)nnn2-c2nonc2N)cc1	0.5	-6	·	12	7	-7
O=C(NCc1cccnc1)c1ccccc1NS(=O)(=O)c1ccc(Br)cc1	-0.1	0	·	·	6	1
Cc1ccc(C(C)NC(=O)c2ccc3c(c2)OCCO3)cc1C (stereo unspecified)	0.9	-3	10	-8	-10	7
Cc1cc(NC(=O)COc2ccccc2)ccc1Cl	·	-37	·	-20	·	12
Cn1c(=O)c(C(=O)NCc2ccc(F)cc2)c(O)c2ccccc21	1.3	-1	2	?	-15	8
CC(C)Nc1ncnc2c1ncn2[C@H]1CN(Cc2ccccc2)C[C@@H](CO)O1	-1.1	-3	1	·	·	8
Cn1cc(C(CO)Cc2ccccc2)c2ccccc21 (stereo unspecified)	-0.9	-12	-6	18	24	-12
CC1(Cc2ccccc2OC(F)(F)F)C(=O)Nc2cc(-c3ccccc3Cl)ccc21 (stereo unspecified)	-0.2	-1	5	·	·	-1
Cc1ccc(S(=O)(=O)NCC(=O)N2CCOCCOCCOCC2)cc1	-0.5	2	7	-8	1	6
CCc1ccccc1NC1=NCC(=O)N1C1CCCCC1	-1.2	13	5	-22	-5	0
O=C(OC1CCCCC1=O)c1cccc(S(=O)(=O)N2CCCCC2)c1 (stereo unspecified)	0.0	-1	2	-39	-4	6
Cc1ccc(NC(=O)C2(S(=O)(=O)c3ccc(Cl)cc3)CC2)cc1	0.0	-4	9	-5	-9	-21
c1ccc(CNc2c3c(nc4ncnn24)CCCC3)nc1	-1.2	-3	-11	10	28	-19
CC(=O)c1cccc(S(=O)(=O)NCC2CCCCC2)c1	-0.3	-2	13	-34	6	8
Clc1cccc(-c2ccc(C=Nc3ccc(N4CCOCC4)cc3)o2)c1	-0.3	20	-2	13	-5	-18
COc1c(Cl)ccc(Cl)c1C(=O)NCc1ccco1	1.2	3	25	2	8	15
COc1ccc(OC)c(NC(=O)COC(=O)COc2c(Cl)cc(Cl)c3ccc(C)nc23)c1	-0.1	-2	6	·	-22	3
CCc1c(C)c(C#N)c2nc3ccccc3n2c1NCc1ccccn1	0.3	-1	4	4	5	1
COc1ccc(CSc2nnc(-c3ccncc3)n2N)cc1	0.2	-2	7	5	-5	8
O=C(c1ccc(Cl)cc1)c1cccc(O)c1	2.1	-11	20	·	8	-5
CC(/C=N/NC(=O)CCn1nnc2ccccc21)=C\c1ccccc1	-0.3	-4	-6	11	-7	-5
Cc1c(N(C)C(=O)COc2ccc3ccccc3c2)c(=O)n(-c2ccccc2)n1C	-0.8	-17	0	-25	-4	-15
CCOC(=O)c1c(C)n(CC(O)c2ccccc2)c2ccc(O)cc12 (stereo unspecified)	1.2	15	-5	?	12	-16
Cc1ccc(/C=C/C(=O)OC(C)C(=O)Nc2ncc(Cl)cc2Cl)o1 (stereo unspecified)	0.5	-11	-4	-6	3	-2
CC(=O)NCCC(=O)Nc1nc(-c2ccc3ccccc3c2)cs1	-0.3	-1	-15	-1	24	-2
O=[N+]([O-])c1ccc2nc(-c3ccccc3)oc2c1	0.1	-18	·	-18	-5	-8
CCOC(=O)c1ccccc1NC(=O)CSc1ccc(-c2ccccn2)nn1	0.1	2	-86*	8	-10	-84*
CC1CC(C)CN(C(=O)c2ccc(S(=O)(=O)N3CCCC3)cc2)C1 (stereo unspecified)	0.0	3	0	-4	10	4
Cc1ccc(NC(=S)NCCSc2ccc(Cl)cc2)c(C)c1	3.6	-15	-5	-28	18	-11
Cc1cccc(N2CCN(Cc3ccc(Br)o3)CC2)c1C	1.6	-2	22	22	-11	10
CCOc1ccc(CCNC(=O)c2ccc(CS(=O)Cc3ccc(Cl)cc3)o2)cc1 (stereo unspecified)	-0.3&-0.4	4	-20	6	16&4	-1
CCOC(=O)N1CCN(C(=O)COC(=O)Cc2ccc(Cl)cc2)CC1	-0.7	-4	2	-6	-5	-1
c1ccc(C(c2ccccc2)c2nc(-c3cccnc3)no2)cc1	1.9	-1	3	-8	-4	8
COC(=O)C1=C[C@@H](C(=O)OC)[C@@H]2C3=C(C(=O)[C@@]2(C)NC(=O)c2ccccc2)[C@H](c2ccccc2)n2c(=O)n(-c4ccccc4)c(=O)n2[C@@H]3C1	0.2	-5	8	·	8	2
Cc1cc(C(=O)NCc2ccc(C(=O)O)o2)c(C)o1	0.5	-5	-5	-2	13	-23
CC(C)C[C@H](NC(=O)N1CC(=O)Nc2ccccc21)C(=O)N1CCC[C@H]1C(=O)O	·	-33	3	3	·	2
COc1ccc(S(=O)(=O)N2CCC(C(=O)Nc3ccc(OC)c(OC)c3)CC2)cc1C	0.1	-14	24	·	-6	27
CC(C)C(=O)Nc1nnc(SCC(=O)NCC2CCCO2)s1 (stereo unspecified)	1.1	1	-2	6	-20	5
CSc1ccc(C(=O)C2CCCN(C(=O)c3cccnc3SC)C2)cc1 (stereo unspecified)	0.8	-5	·	4	-2	-3
COc1ccc(N2CCN(C(=O)C3CCCN(S(=O)(=O)c4c(C)noc4C)C3)CC2)cc1 (stereo unspecified)	0.6	2	-8	·	-15	-15
C[C@H](CO)N1C[C@H](C)[C@@H](CN(C)C(=O)Nc2ccc3c(c2)OCO3)Oc2ccc(NC(=O)CCC(F)(F)F)cc2C1=O	-0.7	-2	4	·	-7	1
O=S(=O)(c1ccc(NC(=S)N2CCOCC2)cc1)N1CCCCC1	0.6	-9	3	·	-20	8
Cc1ccc([C@@H]2CC=C(C(=O)O)[C@H](c3ccc(Br)cc3)N2S(=O)(=O)c2ccc(C)cc2)cc1	0.0	·	0	·	4	-1
COc1ccc(C2CC(c3ccc4ccccc4c3)=NN2C(=O)CN2CCC(C(N)=O)CC2)cc1 (stereo unspecified)	0.9	-2	-3	-6	3	-22
CC(Oc1ccc(Cl)cc1)C(=O)NCCCn1ccnc1 (stereo unspecified)	0.4	4	7	-1	-7	4
CC(C)(C)c1nn(-c2ccccc2)c2[nH]c(=O)c(C=O)cc12	·	-22	·	1	·	-3
C(=C\c1ccccc1)/CN1CCN(Cc2ccc3c(c2)OCO3)CC1	-0.6	-14	-3	-8	-4	-17
CC(Oc1ccc(Cl)cc1Cl)C(=O)NNC(=O)c1cccnc1 (stereo unspecified)	-0.7	-1	1	-1	-9	8
C1CCC(NC2=NCCC2)CC1	1.1	-5	-1	17	1	5
COc1ccc2[nH]cc(CCNC(=O)Cc3c(F)cccc3Cl)c2c1	-0.3	-3	9	-15	3	1
CC1(C)CC(=O)C(C2(O)C(=O)N(Cc3ccccc3)c3ccccc32)CO1 (stereo unspecified)	0.6	-8	9	-4	0	2
CCOC(=O)CC1C(=O)NCCN1C(=S)NC(=O)c1ccc(C)c(Br)c1 (stereo unspecified)	-0.2	-14	2	·	13	-3
Cc1ccc(CCN2CC(C(=O)NC3CCCCC3)CC2=O)cc1 (stereo unspecified)	-0.6	-6	-10	1	-12	-4
CCS(=O)(=O)C(C)(CCl)C(=O)Nc1ccc(C(=O)OC)cc1 (stereo unspecified)	-0.3	-2	3	7	22	-13
O=C1c2cccnc2C(=O)N1Cc1ccc(Cl)cc1	0.3	-9	-7	6	17	-1
O=C(NCCOC(=O)c1ccc(C(=O)OCCNC(=O)c2ccccc2)o1)c1ccccc1	2.3	-4	-3	-11	5	2
Following part
SMILES	TRPML1 ag	D2 PAM	CtBP-E1A blk	TRPV1 PAM	TRPML1 inh	Six1-Eya2 blk
O=C(O)c1cc2ccccc2c(=O)s1	-0.5	-11	3	5	4	1
CCCN1CCN(C(=O)c2oc3ccccc3c2NC(=O)COc2ccc(OC)cc2)CC1	2.5	-11	·	2	-13	-3
O=C1NC(=O)C2(N1)C(=O)c1cccc3cccc2c13 (stereo unspecified)	14	-18	-1	·	6	-6
O=S(=O)(Nc1ccccn1)c1cc(Cl)ccc1Cl	-0.5	-2	3	8	-5	-4
COC1OC2COC(c3ccccc3)OC2C(=O)C1NC(=O)c1ccccc1 (stereo unspecified)	0.0	11	-1	·	2	-7
CCC1C(=O)N=C(SCC(=O)Nc2ccc(Br)cn2)NC1=O (stereo unspecified)	0.0	-7	·	-3	-6	-4
COc1ccc(NC(=O)c2cc(F)cc(F)c2)cc1Cl	-1.1	4	5	-17	20	-1
C#CCOCCOCCOCCNc1nc(N2CCN(C(=O)[C@H](CCC(=O)O)n3cc(C(N)Cc4ccc(O)cc4)nn3)CC2)nc(N2CCN(C(=O)[C@H](CCC(=O)O)n3cc(C(N)Cc4ccc(O)cc4)nn3)CC2)n1 (stereo partly specified)	-0.4	-2	·	12	4	-11
Cc1c(C(=O)NCc2nnc(-c3ccccc3)o2)oc2c(F)cccc12	1.3	-1	-2	11	10	-6
CCN(c1cccc(C)c1)S(=O)(=O)c1ccc2c(c1)CCCN2C(C)=O	0.4	-8	3	-22	16	2
O=C(Nc1nnc(Cc2ccc([N+](=O)[O-])cc2)s1)c1ccc2c(c1)OCO2	0.5	9	1	-2	-3	1
Cc1ccccc1-c1noc(-c2ccc(O)cc2)n1	2.0	13	7	-10	2	0
CCOc1ccc(-c2nnn(CC(=O)NCc3ccc4c(c3)OCO4)n2)cc1	0.5	-10	-2	2	4	2
CCn1cc([N+](=O)[O-])c(C(=O)N2N=C(c3ccc4ccccc4c3)CC2c2ccccc2O)n1 (stereo unspecified)	1.7	7	-14	4	-3	-20
CC12CCC(C(=O)Nc3cccc(Cl)c3)(C(Br)C1=O)C2(C)C (stereo unspecified)	1.0	-13	3	-6	-4	9
